Compound activity (PubChem BioAssay)
Biofilm kill mix: mixtures killing C. albicans biofilm; C. albicans biofilm persisters + clotrimazole, fluorescence viability; primary screen in compound mixtures of four per well; inhibition, % at 7.6 µM; 120,000 tested, 0.02% active;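 active means inhibition above 30.3% in the primary screen of four-compound pools, then above 30% when the compound was retested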;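 further: compounds exposed to preformed 24 h biofilms for 48 h; the number belongs to the whole pool; some results filed as inactive read as strong as hits; inactives centre near 12; 0% = biofilm with clotrimazole alone and 100% = kill control; retested singly at about 60 µM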
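Probe or stimulus – Clotrimazole 50 µg/mL co-treatment · System – C. albicans biofilms · Schedule – 24 h biofilm formation, then 48 h compound exposure, 37 °C · Evaluation – percent inhibition of biofilm viability · Technique – 2-h Alamar Blue fluorescence, 535/590 nm excitation/emission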
Active calls of the source: *.

SMILES	Biofilm kill mix
CCC(C)NC(=O)C1c2ccccc2Oc2ccccc21 (stereo not drawn)	1.7
c1ccc(-c2cn(-c3ccccc3)c3[n+]2CCS3)cc1	8.9
CC(c1ccncn1)N(C)Cc1nc(-c2ccc(C(F)(F)F)cc2)no1 (stereo not drawn)	10.0
CC(OC(=O)CNC(=O)c1ccco1)C(=O)N(C)c1ccccc1 (stereo not drawn)	10.0
C=CCn1c(SCc2cc(=O)n3ccsc3n2)nc2cc(Cl)ccc2c1=O	12.8
COc1cccc(CNC(=O)CCCCCn2c(=S)[nH]c3ccc(N4CCOCC4)cc3c2=O)c1	23.7
O=Cc1ccc(N2CCCC2)c([N+](=O)[O-])c1	4.8
Cn1c(=O)c([N+](=O)[O-])c(N2CCSCC2)c2ccccc21	16.0
Cc1cc2n(n1)C(c1cn(-c3ccccc3)nc1C)Nc1c(C)cccc1-2 (stereo not drawn)	-6.5
COc1cc(/C(C)=N/NC(=O)CN2CCN(S(=O)(=O)c3ccc(C)cc3)CC2)ccc1O	26.5
O=C(CN1C(=O)c2ccccc2C1=O)NCCc1c[nH]c2ccccc12	9.6
O=c1cc(-c2ccccc2)[nH][nH]1	7.5
Oc1ccc(/C=N/Nc2nc(-c3ccccc3F)nc3ccccc23)c(O)c1	23.9
Cc1oc(S(=O)(=O)N2CCCCC2)cc1NC(=O)Nc1ccc(F)cc1	2.7
CCOC(=O)C1=C(CBr)NC(=O)NC1C (stereo not drawn)	6.0
O=C(COc1ccccc1)NCC(=O)NC1CCCCC1	12.6
CCOC(=O)c1cc(-c2cccnc2)nn1-c1ccccc1C	-0.7
COc1ccc(/C=N/NC(=S)N[C@H]2CC3CCC2C3)cc1 (stereo partly drawn)	17.5
CC(/C=C/c1ccco1)=N\NC(=O)c1cc(Cl)ccc1O	22.2
Cc1nc(C)c(Oc2cccc(C(F)(F)F)c2)c(=O)[nH]1	23.5

Among those listed so far, these have a carbonyl joined to an NH by a bond outside any ring.
SMILES	Biofilm kill mix
CCC(C)NC(=O)C1c2ccccc2Oc2ccccc21 (stereo not drawn)	1.7
CC(OC(=O)CNC(=O)c1ccco1)C(=O)N(C)c1ccccc1 (stereo not drawn)	10.0
COc1cccc(CNC(=O)CCCCCn2c(=S)[nH]c3ccc(N4CCOCC4)cc3c2=O)c1	23.7
COc1cc(/C(C)=N/NC(=O)CN2CCN(S(=O)(=O)c3ccc(C)cc3)CC2)ccc1O	26.5
O=C(CN1C(=O)c2ccccc2C1=O)NCCc1c[nH]c2ccccc12	9.6
Cc1oc(S(=O)(=O)N2CCCCC2)cc1NC(=O)Nc1ccc(F)cc1	2.7
O=C(COc1ccccc1)NCC(=O)NC1CCCCC1	12.6
CC(/C=C/c1ccco1)=N\NC(=O)c1cc(Cl)ccc1O	22.2

(next part)
SMILES	Biofilm kill mix
N#CC1=C(N)NC(=S)C(C(N)=O)C1c1ccccc1F (stereo not drawn)	4.2
COc1ccc(N=Nc2ccc(O)c(P(=O)(c3ccccc3)c3ccccc3)c2)cc1	4.9
CCOC(=O)c1ccc(NC(=O)c2nc[nH]c2C(=O)N2CCc3ccccc3C2)cc1	11.7
Cn1cc(S(=O)(=O)NCc2ccc(Cl)cc2)c(=O)n(C)c1=O	23.7
O=C1CC(c2cccc(Cl)c2)CC(O)=C1C=Nc1ccccc1 (stereo not drawn)	-14.9
CCn1c(SCC(=O)NNC(=O)c2ccccc2)nnc1-c1ccco1	2.7
CCCCNC(=O)Oc1c(Br)cc2sc(=O)oc2c1Br	13.3
O=C(Nc1ccc(Cl)cc1)c1ccc(OC2CSC2)cc1	4.6
CN(C)c1ccc(NC(=S)c2ccccn2)cc1	11.3
CSc1nccc(-c2c(-c3ccc(Cl)cc3)noc2C)n1	9.6
CNC(=O)NC(=O)C(C)Oc1ccccc1F (stereo not drawn)	6.1
COCCCn1c(SCc2nnc(-c3ccc(OC)c(OC)c3)o2)nc2ccccc2c1=O	14.0
O=c1[nH][nH]c(-c2ccccc2O)c1C(C[N+](=O)[O-])c1cccc(Cl)c1 (stereo not drawn)	7.4
CCC(Sc1nc2ccccc2[nH]1)C(=O)Nc1ccc(NC(C)=O)cc1 (stereo not drawn)	12.7
CN(C)c1ccc(P(=O)(Nc2cccc(C(F)(F)F)c2)N2CCOCC2)c(NC(=O)c2cccs2)c1 (stereo not drawn)	8.1
Cc1c(NS(=O)(=O)c2ccc(Cl)c(C(=O)OCC(=O)NCc3ccco3)c2)c(=O)n(-c2ccccc2)n1C	8.3
O=C(Cn1cc(C(F)(F)F)cc(Cl)c1=O)NCCc1ccccc1	14.8
Cc1ccc(S(=O)(=O)NC(=O)Nc2ccccc2F)cc1	10.3
Cc1cc(-c2n[nH]c(=S)n2Cc2ccco2)n(C)n1	20.1
CCN(C(=S)Nc1ccc(C(C)=O)cc1)C1CCCCC1	3.0
CCCCNC(=O)CCn1c(=O)c2ccccc2n(Cc2cc(C)ccc2C)c1=O	13.0
CCCN1CCN(C(=O)c2nn(-c3ccc(OC)cc3)c(=O)c3c2c2ccccc2n3C)CC1	19.5
CC(C)(C)C1CCC(OCC(O)CN2CCCC2)CC1 (stereo not drawn)	7.6
CN(CC(=O)Nc1ccc(F)cc1)c1ccc(S(=O)(=O)N2CCCC2)cn1	10.5
O=C1C(Cc2ccc(O)cc2)NC(=S)N1Cc1ccccc1 (stereo not drawn)	23.3
CCSc1nc(=O)n(-c2ccccc2)c(C)c1C(C)=S	8.0
Cc1ccc(C2C(C(=O)O)c3ccccc3C(=O)N2C)c(C)c1 (stereo not drawn)	12.9
CCS(=O)(=O)N1CCC(C(=O)N2CCN(Cc3ccccc3)CC2)CC1	11.8
O=C(O)CCCN1C(=O)/C(=C/C=C/c2ccco2)SC1=S	-1.3
Cc1cccc(NC(=O)C(C)OC(=O)c2ccccc2NS(=O)(=O)c2cc(C)c(C)c([N+](=O)[O-])c2)c1 (stereo not drawn)	-5.0
COC(=O)C1=NN(C(=O)c2ccc(Br)cc2)C(O)(C(C)(C)C)C1 (stereo not drawn)	17.8
COc1ccc(C(=O)Nc2ccc(O)cc2C(=O)O)cc1	-3.5
NC(=O)C(c1ccccn1)c1ncc(C(F)(F)F)cc1Cl (stereo not drawn)	-32.9
COc1ccc(C(=O)NCc2cccnc2)cc1S(=O)(=O)N1CCCc2ccccc21	8.7
COC(=O)c1ccccc1NC(=O)c1ccc2nccnc2c1	9.4
COc1ccc2c(C)cc(=S)[nH]c2c1	15.6
O=C(CN1C(=O)CS/C1=C\c1nc(-c2ccc(Cl)cc2)cs1)Nc1cccnc1Cl	7.8
Cc1ccc(C(=O)Nc2cccnc2N2CCN(C)CC2)cc1	9.9
N#Cc1cccnc1N1CCN(C(=O)COCC(=O)O)CC1	10.7
Cc1cc(C(=O)NCCc2ccccc2)c2cc(F)ccc2n1	8.9

Two records picked at random from those above, as already listed:
SMILES	Biofilm kill mix
O=C(CN1C(=O)c2ccccc2C1=O)NCCc1c[nH]c2ccccc12	9.6
Cc1oc(S(=O)(=O)N2CCCCC2)cc1NC(=O)Nc1ccc(F)cc1	2.7

(more compounds)
SMILES	Biofilm kill mix
O=C(Nc1ccc(Cl)cc1)Nc1nnc(SCc2ccccc2)s1	19.8
CCn1c(SCC(=O)OC)nnc1-c1ccc(C)cc1	13.1
N#Cc1ccc(Oc2ccc(-c3nc4ccccc4nc3-c3ccccc3)cc2)cc1C#N	23.2
O=C(Nc1ncc2c(n1)-c1ccccc1CC2)C1CC1	15.8
CC1Cc2ccccc2N1C(=O)c1nn(C)cc1Br (stereo not drawn)	11.3
Cc1ccc(C(=O)NN2C(=O)C3C4c5ccccc5C(c5ccccc54)[C@@H]3C2=O)cc1 (stereo partly drawn)	12.2
CN(C)NC(=O)C(NC(=O)c1ccc(N)cc1)C12CC3CC(CC(C3)C1)C2 (stereo not drawn)	28.9
Cc1ccc(NC(=O)/C(C#N)=N/Nc2ccc(C(=O)O)cc2)c(C)c1	11.8
COC(=O)c1ncn(C2OC(COC(C)=O)C(OC(C)=O)C2OC(C)=O)n1 (stereo not drawn)	19.4
COc1ccc(C(=O)NC2CC(C)(C)Cc3occc32)cc1 (stereo not drawn)	10.9
COc1ccc(CN2CCNC(=O)C2CC(=O)N2CCCCO2)cc1OC (stereo not drawn)	12.7
N/C(=N\OC(=O)CC1CCCCC1)c1ccc([N+](=O)[O-])cc1	5.7
CCC(=O)NCCc1nc2ccccc2n1CC(=O)c1ccccc1	7.5
Cc1ccc(NS(=O)(=O)c2ccc(C)c(NC(=O)COc3ccccc3)c2)c(C)c1	0.3
COc1ccc(NC(=O)CS(=O)(=O)c2cn(CC(=O)N3CCOCC3)c3ccccc23)cc1	15.3
Cc1ccc(-n2c(=O)c3c(C)c(C)sc3n(Cc3cc(=O)n4ccccc4n3)c2=O)cc1C	22.2
c1ccc(CN2CCC(Nc3nc(-c4cccnc4)nc4ccccc34)CC2)cc1	13.5
O=C(CSc1ccccn1)N/N=C/c1ccccc1[N+](=O)[O-]	18.5
CCOc1c(Cl)cc(/C=N/NC(N)=S)cc1OC	9.9
COc1ccc(NS(=O)(=O)c2ccc(Cl)c(N)c2)cc1Br	19.2
Cc1cccc2cc(/C=C/C(=O)c3ccco3)c(Cl)nc12	24.4
O=C(NCCc1csc(-c2cccnc2)n1)c1ccc(Cl)cc1	16.2
COc1cccc(OC)c1C(=O)NC(=O)Nc1c(F)cc(F)cc1F	26.7
COc1ccc(C(C(N)=O)c2ncc(C(F)(F)F)cc2Cl)cc1OC (stereo not drawn)	-1.1
CSc1nsc(/C=C/Nc2ccc(C(=O)O)cc2)c1C#N	8.8
N/C(=N\NC(=O)c1ccccc1Cl)c1cc2ccccc2oc1=O	6.7
CCOC(=O)Cn1nnc(-c2cc(OC)c(OC)c(OC)c2)n1	6.8
NNC(=O)CSc1cccc2cccnc12	19.8
O=C(Cn1cnc2ccccc2c1=O)NCCC(=O)Nc1ccc2c(c1)OCO2	14.2
COc1ccc(C(=O)/C=C2/Sc3cc4c(cc3N2C)OCO4)cc1	-0.9
CCOC(=O)C1C(c2ccc(OC)c(OC)c2)c2c([nH][nH]c2=O)CC1(C)O (stereo not drawn)	20.6
Cc1ccc(CNC(=O)C2CCN(S(=O)(=O)N3CCC4(CC3)OCCO4)CC2)cc1	17.5
COCCSc1ccccc1C(=O)Nc1ccccc1C(C)C	12.7
O=C(Nc1cccnc1)c1ccc(NS(=O)(=O)c2cc([N+](=O)[O-])ccc2Cl)cc1	19.6
CC1=NCCN1CCNC(=O)Nc1ccc(F)cc1	4.3
COC(=O)c1ccc(C(=O)OC)c(NC(=S)N2CCN(c3ccc(F)cc3)CC2)c1	12.5
Cc1ccccc1C(=O)N1CCN(c2ccc(NC(=O)c3ccc4c(c3)OCO4)cc2)CC1	21.1
Cc1nc2c(N=Nc3ccccc3F)c(N)nn2c(N)c1C#N	8.2
CCCOc1ccccc1/C=C(\C#N)C(=O)Nc1cccnc1	6.5
CCC(/C=N/NC(=O)C(=O)N/N=C/C(CC)CC)CC	16.2
COc1ccc(Cl)cc1N1C(=O)CC(Sc2ccccc2N)C1=O (stereo not drawn)	16.6
COc1cc(/C=N/NS(=O)(=O)c2ccc(C)c([N+](=O)[O-])c2)ccc1O	17.2
CC(=O)Cc1cc2cc([N+](=O)[O-])ccc2oc1=O	16.9
Cc1c(C(=O)N2CCC(Cc3ccccc3)CC2)cccc1[N+](=O)[O-]	-7.4
COc1ccc(CCNC(=O)CSCc2ccc([N+](=O)[O-])cc2)cc1OC	13.9
COc1ccc(-c2cn3cccnc3n2)cc1F	13.6
COc1ccccc1NS(=O)(=O)c1cc(NC(=O)c2ccncc2)ccc1N1CCCC1	8.1
C=CCNc1cnn(-c2ccccc2)c(=O)c1Cl	16.3
CN1CCCN(S(=O)(=O)c2cccc(Cl)c2Cl)CC1	-1.8
COc1cc(NC(=O)COc2ccccc2Cl)ccc1NC(=O)C(C)C	8.4
Cc1c(N=Cc2cc(Br)cc(Br)c2O)cccc1C(=O)O	-13.3
OCCNCCCCSc1ccc(Cl)cc1	9.4
C=CCC1(NCc2ccco2)CCN(CC)CC1	8.1
COc1cc(-c2cc(C(=O)Nc3ccc(S(=O)(=O)NCc4ccco4)cc3)c3ccccc3n2)cc(OC)c1OC	7.7
CCC(CC)C(=O)NCc1ccc(OC)cc1	-8.8
C=CCSc1nnc(NC(=O)c2cn(CC)c3nc(C)ccc3c2=O)s1	13.9
CC1CC(C)(C)NC(=S)N1CCC(=O)NCc1ccc(F)cc1 (stereo not drawn)	12.0
Cn1cccc1/C=N/NC(=O)c1ccco1	15.9
Cc1nn(C(=O)N2CCOCC2)c(C)c1C	13.2
COc1cc(-c2cc3nc4ccccc4n3c(N)c2C#N)cc(OC)c1OC	20.2

The results go on.
SMILES	Biofilm kill mix
COc1ccc(S(=O)(=O)N2CCC(C(=O)N3CCOCC3)CC2)cc1Cl	15.3
COc1cc(/C=N/Nc2nc3ccccc3s2)ccc1O	-2.2
O=C(CN(Cc1ccccc1)S(=O)(=O)c1ccccc1)NC1CC1	7.9
Cc1ccccc1CN1C(=O)C(C)S/C1=N/N=C/c1ccco1 (stereo not drawn)	9.9
Cn1c(=O)c(C(=O)Nc2ccccc2S(N)(=O)=O)c(O)c2ccccc21	9.2
COc1nc(-c2ccccc2)nc(C)c1CC(=O)O	15.3
CCN(CC)S(=O)(=O)c1cccc(NC2=NCCCCC2)c1	21.9
Cc1cc(NC(=O)c2ccc(C)c([N+](=O)[O-])c2)no1	3.3
O=S(=O)(N/N=C/c1ccccc1F)c1ccccc1	5.7
COc1ccc(-c2nn(-c3ccccc3)cc2/C=C/C(=O)OCC(=O)Nc2ccccc2C#N)cc1	0.6
Cc1ccc(NC(=O)C(C)C(=O)Nc2ccc(C)cc2)cc1	-8.1
COc1ccc(NC(=O)COC(=O)c2cccc(S(=O)(=O)N(C)C)c2)cc1	27.5
COc1ccc(-c2nn(-c3ccccc3)cc2C(=O)NC(=S)Nc2cc(Cl)ccc2Cl)cc1	5.1
COc1ccc(NC(=O)C(Br)C(C)C)cc1 (stereo not drawn)	9.1
Cc1c(C)c(C)c(/C=[N+](/C)[O-])c(C)c1C	3.1
CNn1cnc2ccsc2c1=O	10.9

The list is partial, so the mix of outcomes need not match the whole.
